Screening data deposited in PubChem by Broad Institute.
rRNA inh HTS – reduced GFP signal of wild-type E. coli, primary screen, bacterial rRNA inhibitor project, GFP/RFP fluorescence, OD600, single point | GFP signal change (wild-type ribosome), % (concentration not given with the values) | actives 1.6% (n = 350,000) | AID 720706, 2013 | E. coli WT GFP vs humanized-ribosome RFP mutants, 24 h; active compounds read low; DMSO median 0, no signal -100;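 active means significant combined selectivity score with lowered wild-type GFP, culture density cut under 30%, mutant RFP and density less affected; inactive means any of these conditions unmet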; further: one replicate is shown; some compounds called inactive have numbers as strong as hits
rRNA inh HTS OD600 – also measured in rRNA inh HTS; calls as there; OD600 change, %; measured here: OD600 growth;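 optical density of the mix in the first replicate; 0 = DMSO median and -100 = no signal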
rRNA inh HTS RFP – second read-out of rRNA inh HTS, no call of its own (marks repeat the call); RFP signal change, %; measured here: RFP humanized mutant strains;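 first replicate; 0 = DMSO median and -100 = no signal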
* hit, by the source's call; & = joins results of further samples.

Each structure is followed by: rRNA inh HTS	rRNA inh HTS OD600	rRNA inh HTS RFP
- COCC#Cc1ccc2c(c1)O[C@H](CN(C)Cc1ccc3c(c1)OCO3)[C@H](C)CN([C@@H](C)CO)S2(=O)=O
→ -5	-12	2.4
- C[C@@H]1CCCCO[C@H](CN(C)C(=O)CCCN(C)C)[C@H](C)CN([C@H](C)CO)C(=O)c2cc(N(C)C)ccc2O1
→ 1	4	-2.5
- O=C(C[C@@H]1C=C[C@H](NC(=O)CC2CC2)[C@H](CO)O1)NCc1ccccc1
→ 2	16	-3.8
- Cc1ccc(S(=O)(=O)Nc2ccc3c(c2)C(=O)N([C@H](C)CO)C[C@@H](C)[C@@H](CN(C)C(=O)C2CCCCC2)OCCCC[C@@H](C)O3)cc1
→ -6	-15	6.5
- COc1ccc(S(=O)(=O)Nc2ccc3c(c2)CC(=O)N([C@@H](C)CO)C[C@@H](C)[C@@H](CN(C)S(=O)(=O)c2cn(C)cn2)O3)cc1
→ 2	3	-0.6
- CC(=O)N(C)C[C@@H]1Oc2c(cccc2N(C)C)C(=O)N(C)C[C@H]1C
→ 1	5	2.2
- CNC[C@@H]1Oc2ncccc2C(=O)N(C)C[C@@H]1C
→ 2	8	-0.6
- C[C@H](CO)N1C[C@H](C)[C@@H](CN(C)Cc2ccccc2)OCCCC[C@H](C)Oc2ccc(NC(=O)CCC(F)(F)F)cc2C1=O
→ 4	3	-1.3
- CC[C@H]1C/C=C\C[C@@H](c2ccc(F)cc2)NC(=O)CCC(=O)N1
→ 3	18	-2.5
- O=C(C[C@H]1C[C@@H]2c3cc(NC(=O)c4cccnc4)ccc3O[C@@H]2[C@@H](CO)O1)NCc1ccccc1F
→ -4	-7	-0.5
- O=C(Nc1ccccc1F)N1CC(=O)N2[C@H](CO)[C@H](c3ccc(-c4ccc(F)cc4)cc3)[C@@H]2C1
→ -5	-46	19
- C[C@@H]1CN([C@H](C)CO)C(=O)c2cc(NC(=O)C3CCCCC3)ccc2O[C@@H](C)CCCCO[C@@H]1CN(C)S(=O)(=O)c1ccccc1
→ 0	2	4.0
- CO[C@@H]1CN(C)C(=O)c2ccc(NC(=O)C3CCC3)cc2OC[C@H](C)N(C(=O)CN(C)C)C[C@H]1C
→ 2	0	-2.6
- C[C@@H]1CN([C@H](C)CO)S(=O)(=O)c2ccc(-c3ccncc3)cc2O[C@H]1CN(C)C(=O)C1CCCCC1
→ -4	-1	-3.1
- O=C(c1ccncc1)N1CC[C@@H]2[C@@H](CO)Nc3ccc(Br)cc3[C@@H]21
→ 0	8	-3.0
- COC(=O)N(C)C[C@H]1OCc2cn(nn2)CCCC(=O)N([C@@H](C)CO)C[C@H]1C
→ 0	2	-0.5
- C[C@@H]1CN([C@H](C)CO)C(=O)c2cc(NS(C)(=O)=O)ccc2O[C@@H](C)CCCCO[C@@H]1CN(C)C(=O)C1CCCCC1
→ -3	-4	-2.8
- CN(C)C(=O)c1ccc(-c2ccc([C@@H]3[C@@H](CO)N4C(=O)CN(C(=O)C5CCC5)C[C@@H]34)cc2)cc1
→ 2	12	-2.8
- COCC(=O)Nc1ccc2c(c1)C(=O)N(C)C[C@@H](OC)[C@@H](C)CN[C@@H](C)CO2
→ 2	7	-2.8
- O=C(C[C@H]1C=C[C@@H](NC(=O)c2ccncc2)[C@H](CO)O1)Nc1ccccc1
→ 3	-2	-1.8
- O=C1CNC[C@@H]2[C@H](c3ccc(C4=CCCC4)cc3)[C@H](CO)N12
→ -2	-5	-1.6
- C[C@@H]1CCCCO[C@@H](CN(C)C(=O)c2ccccc2)[C@@H](C)CN([C@H](C)CO)C(=O)c2cc(NS(=O)(=O)c3cn(C)cn3)ccc2O1
→ 2	5	-0.3
- C[C@H](CO)N1C[C@H](C)[C@@H](CN(C)Cc2cccc(F)c2)OCc2ccccc2-c2c(n(C)c3ccccc23)C1=O
→ -9	-10	5.7
- CC=Cc1ccc2n(c1=O)C[C@H]1[C@H](CO)[C@@H](C(=O)NC3CCCC3)N[C@@H]21 (mixture of isomers)
→ 3	2	-3.4
- O=C(Cc1ccccc1)N1CC(=O)N2[C@H](CO)[C@@H](c3ccc(C4=CCCC4)cc3)[C@@H]2C1
→ -54	-76	-8.0
- Cc1cccc(S(=O)(=O)N2C[C@@H]3N[C@H](C2)C3c2ccc(-c3cccc(C#N)c3)cc2)c1 (stereo partly drawn)
→ -3&-45	21&-68	-3.1&4.9
- C[C@H](CO)N1C[C@H](C)[C@@H](CN(C)C(=O)C2CCCCC2)Oc2cc(Br)ccc2S1(=O)=O
→ -12	-15	-1.4
- CC(C)NC(=O)N(C)C[C@@H]1Oc2ccc(N)cc2CC(=O)N(C)C[C@@H]1C
→ 4	6	-0.7
- CCCC(=O)Nc1ccc2c(c1)OC[C@@H](C)N(C)C[C@@H](C)[C@H](OC)CN(C)C2=O
→ 0	1	4.3
- COCC(=O)N1CC(=O)N2[C@H](CO)[C@H](c3ccc(C#CC4CCCCC4)cc3)[C@@H]2C1
→ 6	-2	-3.0

The list goes on; the last 6 above are carried over.
Each structure is followed by: rRNA inh HTS	rRNA inh HTS OD600	rRNA inh HTS RFP
- O=C(Cc1ccccc1)N1CC(=O)N2[C@H](CO)[C@@H](c3ccc(C4=CCCC4)cc3)[C@@H]2C1
→ -54	-76	-8.0
- Cc1cccc(S(=O)(=O)N2C[C@@H]3N[C@H](C2)C3c2ccc(-c3cccc(C#N)c3)cc2)c1 (stereo partly drawn)
→ -3&-45	21&-68	-3.1&4.9
- C[C@H](CO)N1C[C@H](C)[C@@H](CN(C)C(=O)C2CCCCC2)Oc2cc(Br)ccc2S1(=O)=O
→ -12	-15	-1.4
- CC(C)NC(=O)N(C)C[C@@H]1Oc2ccc(N)cc2CC(=O)N(C)C[C@@H]1C
→ 4	6	-0.7
- CCCC(=O)Nc1ccc2c(c1)OC[C@@H](C)N(C)C[C@@H](C)[C@H](OC)CN(C)C2=O
→ 0	1	4.3
- COCC(=O)N1CC(=O)N2[C@H](CO)[C@H](c3ccc(C#CC4CCCCC4)cc3)[C@@H]2C1
→ 6	-2	-3.0
- CO[C@H]1CN(C)C(=O)c2ccc(NC(=O)c3ccc(F)cc3)cc2OC[C@H](C)N(C(=O)CC2CC2)C[C@@H]1C
→ 3	6	-1.2
- N#Cc1ccc(-c2ccc([C@@H]3[C@H]4CNC[C@@H]3N4Cc3cc(F)ccc3F)cc2)cc1
→ -57	-71	-9.9
- Cc1ccc(-c2ccccc2[C@@H]2[C@@H](C#N)N(C(=O)Cc3cccnc3)[C@@H]2CO)cc1
→ -4	-6	-1.4
- O=C(NCC(F)(F)F)[C@H]1[C@H](CO)[C@H]2Cn3c(cccc3=O)[C@H]2N1CCC(F)(F)F
→ -4	2	-5.8
- Cc1ccc(S(=O)(=O)Nc2cccc3c2O[C@H](CN(C)C(=O)Nc2ccccc2)[C@@H](C)CN([C@H](C)CO)C3=O)cc1
→ -1	1	-0.2
- CC(=O)Nc1ccc2c(c1)CC(=O)N(C)C[C@H](C)[C@H](CN(C)C(=O)OC(C)(C)C)O2
→ 0	2	-0.1
- CC(=O)N1[C@H](CO)[C@@H](c2ccc(C3=CCCC3)cc2)[C@H]1CNC(=O)CN(C)C
→ 1	4	-0.5
- C[C@H](CO)N1C[C@H](C)[C@@H](CN(C)Cc2ccc(C(F)(F)F)cc2)Oc2ccc(NS(=O)(=O)c3cccs3)cc2C1=O
→ 0	-31	1.4
- Cc1noc(C)c1NC(=O)Nc1ccc2c(c1)CC(=O)N([C@H](C)CO)C[C@H](C)[C@@H](CN(C)S(C)(=O)=O)O2
→ 4	10	-1.4
- OC[C@@H]1[C@H](c2ccc(-c3ccc(F)cc3)cc2)[C@@H](CNC2CCCC2)N1CCC(F)(F)F
→ 0	-19	5.8
- COc1ccc(S(=O)(=O)Nc2ccc3c(c2)CC(=O)N([C@H](C)CO)C[C@@H](C)[C@H](CN(C)CC2CC2)O3)cc1
→ 3	-1	1.0
- O=C(Nc1ccccc1F)N1CC(=O)N2[C@H](CO)[C@@H](c3ccc(-c4ccccc4)cc3)[C@@H]2C1
→ 2	-21	25
- C[C@H](CO)N1C[C@H](C)[C@@H](CN(C)S(=O)(=O)c2ccc(F)cc2)OCCCC[C@H](C)Oc2ccc(NC(=O)C3CCCCC3)cc2C1=O
→ -1	-9	2.6
- COc1ccc([C@@H]2C/C=C\C[C@H](c3ccc(F)cc3)NC(=O)CCC(=O)N2)c(OC)c1
→ -5	4	-1.1
- CO[C@H]1CN(C)C(=O)c2ccc(NC(C)=O)cc2OC[C@H](C)N(Cc2cncnc2)C[C@H]1C
→ 1	4	-1.3
- COC(=O)C[C@H]1CC[C@H]2[C@H](COc3ccc(NC(=O)Cc4cccs4)cc3C(=O)N2C)O1
→ -3	-11	2.1
- CC(C)(C)[S@@](=O)N1Cc2cc(C(=O)NC3CCC3)nc(-c3cccc(Br)c3)c2[C@H]1CCO
→ -8	-6	17
- C[C@H]1CN([C@@H](C)CO)C(=O)c2cccc(N(C)C)c2O[C@H]1CN(C)S(=O)(=O)c1cn(C)cn1
→ 3	-2	-4.8
- CCCNC(=O)N1[C@H](CO)[C@H](c2ccc(C3=CCCCC3)cc2)[C@@H]1CNC(C)C
→ 1	-51	38
- C[C@@H]1CN([C@H](C)CO)C(=O)c2cc(NS(=O)(=O)c3cccs3)ccc2O[C@@H]1CN(C)Cc1ccccc1
→ 6	2	0.3
- CCCNC(=O)N1CC(=O)N2[C@H](CO)[C@H](c3ccc(C#Cc4ccccc4)cc3)[C@H]2C1
→ 2	-1	-0.2
- O=C(C[C@@H]1C[C@@H]2c3cc(NC(=O)NC4CCCC4)ccc3O[C@@H]2[C@H](CO)O1)NCc1ccc(Cl)cc1
→ 2	5	1.1
- O=C(C[C@@H]1C[C@H]2c3cc(NC(=O)Nc4ccccc4)ccc3O[C@H]2[C@@H](CO)O1)NCc1ccccn1
→ 2	2	1.1
- CNC[C@@H]1OCCCC[C@@H](C)Oc2ccc(NC(=O)Nc3ccc4c(c3)OCO4)cc2C(=O)N([C@H](C)CO)C[C@H]1C
→ 9	4	-2.0
- CCC(=O)N1CC(=O)N2[C@H](C1)[C@H](c1ccc(-c3ccc(C(=O)N(C)C)cc3)cc1)[C@@H]2CO
→ 6	3	0.7
- COc1cccc(C(=O)Nc2ccc3c(c2)OC[C@H](C)NC[C@H](C)[C@@H](OC)CN(C)C3=O)c1
→ 0	2	-0.7
- C[C@@H]1CN([C@@H](C)CO)C(=O)c2cc(N(C)C)ccc2O[C@@H](C)CCCCO[C@H]1CN(C)S(=O)(=O)c1cccs1
→ -3	4	2.6
- COc1cccc(S(=O)(=O)N(C)C[C@H]2OCc3ccccc3-c3c(n(C)c4ccccc34)C(=O)N([C@@H](C)CO)C[C@@H]2C)c1
→ -1	0	-0.2
- O=C(O)C[C@@H]1C[C@@H]2c3cc(NS(=O)(=O)c4ccccc4)ccc3O[C@@H]2[C@@H](CO)O1
→ 0	2	-0.8
- COc1ccc2c3c(n(C)c2c1)[C@@H](CO)N(Cc1ccccc1)CC31CN(S(=O)(=O)c2ccc(C)cc2)C1
→ -2	-11	-3.1
- COc1ccc2c3c([nH]c2c1)[C@H](CO)N(C(=O)Nc1ccc(F)cc1)CC31CCN(CC2CCOCC2)CC1
→ 2	-2	-0.4
- O=C(C1CCC1)N1CC[C@@H]2[C@H](CO)Nc3ccc(C#Cc4ccc(F)cc4)cc3[C@@H]21
→ 2	-4	15
- COc1ccccc1C(=O)Nc1ccc2c(c1)C(=O)N(C)C[C@@H](OC)[C@@H](C)CN(CC1CC1)[C@@H](C)CO2
→ -2	-3	0.1
- O=C(N[C@H]1C=C[C@H](CC(=O)N2CCc3ccccc3C2)O[C@H]1CO)C1CCOCC1
→ 2	9	1.1
- O=C(C[C@@H]1C=C[C@H](NC(=O)Nc2ccccc2F)[C@@H](CO)O1)NCc1ccccc1
→ 0	-2	0.7
- Cc1noc(C)c1NC(=O)N(C)C[C@H]1Oc2ccc(NC(=O)CCC(F)(F)F)cc2C(=O)N([C@@H](C)CO)C[C@@H]1C
→ 1	4	-0.7
- O=S(=O)(c1cccc(Cl)c1)N1[C@@H]2CNC[C@H]1C2c1ccc(-c2cccc(F)c2)cc1 (stereo partly drawn)
→ -39&-53	-35&-68	0.7&-11
- CC(C)NC(=O)N(C)C[C@@H]1Oc2c(N)cccc2C(=O)N(C)C[C@H]1C
→ 1	2	-1.7
- c1cncc(-c2ccc([C@@H]3[C@H]4CNC[C@@H]3N4CC3CCOCC3)cc2)c1
→ 7	5	2.1
- Cc1ccc(S(=O)(=O)N(C)C[C@@H]2Oc3cc(C#Cc4ccncc4)ccc3S(=O)(=O)N([C@H](C)CO)C[C@@H]2C)cc1
→ -4	-5	12
- C[C@@H]1CN([C@@H](C)CO)S(=O)(=O)c2ccc(C3=CCCC3)cc2O[C@@H]1CN(C)S(C)(=O)=O
→ 5	3	-0.3
- O=C(Nc1cc(F)ccc1F)N1CC(=O)N2[C@H](C1)[C@@H](c1ccc(-c3cccc(F)c3)cc1)[C@@H]2CO
→ -14	-55	30
- COc1cccc(-c2ccc([C@@H]3[C@H](CO)N4C(=O)CN(C(=O)C5CCCC5)C[C@@H]34)cc2)c1
→ 0	-1	2.5
- O=C(CN1CCOCC1)N[C@@H]1CC[C@H](CCn2cc(C3CCCC3)nn2)O[C@H]1CO
→ 2	-3	-1.6
- CO[C@@H]1CN(C)C(=O)c2cc(NC(=O)NC(C)C)ccc2OC[C@H](C)N(C(=O)CN(C)C)C[C@@H]1C
→ 7	5	-0.7
- CCCN(C)C[C@H]1OCCCC[C@@H](C)Oc2ccc(NS(=O)(=O)c3ccc(Cl)cc3)cc2C(=O)N([C@@H](C)CO)C[C@H]1C
→ 1	-2	14
- O=C(C[C@@H]1C=C[C@@H](NC(=O)CN2CCOCC2)[C@@H](CO)O1)NCCc1ccncc1
→ -2	2	-1.8

An excerpt, so the mix of outcomes need not match the whole.
